# Compound activity as filed in PubChem BioAssay.
# KCNQ2 block = KCNQ2 channel blockers in CHO-K1 cells – cell-based, FluxOR thallium flux, B-score, primary screen (AID 2156); B-score at 10 µM; 20 min; stronger effect = lower value; only compounds with negative scores are shown here; some inactives read as strong as hits; actives 1.1% (n = 310,000); O88943;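 active means fluorescence ratio B-score at most minus 3 library SDs, with starting brightness B-score within 2 library SDs, cut at about -5.5 in these data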
# Target sequence (O88943 whole entry, looked up): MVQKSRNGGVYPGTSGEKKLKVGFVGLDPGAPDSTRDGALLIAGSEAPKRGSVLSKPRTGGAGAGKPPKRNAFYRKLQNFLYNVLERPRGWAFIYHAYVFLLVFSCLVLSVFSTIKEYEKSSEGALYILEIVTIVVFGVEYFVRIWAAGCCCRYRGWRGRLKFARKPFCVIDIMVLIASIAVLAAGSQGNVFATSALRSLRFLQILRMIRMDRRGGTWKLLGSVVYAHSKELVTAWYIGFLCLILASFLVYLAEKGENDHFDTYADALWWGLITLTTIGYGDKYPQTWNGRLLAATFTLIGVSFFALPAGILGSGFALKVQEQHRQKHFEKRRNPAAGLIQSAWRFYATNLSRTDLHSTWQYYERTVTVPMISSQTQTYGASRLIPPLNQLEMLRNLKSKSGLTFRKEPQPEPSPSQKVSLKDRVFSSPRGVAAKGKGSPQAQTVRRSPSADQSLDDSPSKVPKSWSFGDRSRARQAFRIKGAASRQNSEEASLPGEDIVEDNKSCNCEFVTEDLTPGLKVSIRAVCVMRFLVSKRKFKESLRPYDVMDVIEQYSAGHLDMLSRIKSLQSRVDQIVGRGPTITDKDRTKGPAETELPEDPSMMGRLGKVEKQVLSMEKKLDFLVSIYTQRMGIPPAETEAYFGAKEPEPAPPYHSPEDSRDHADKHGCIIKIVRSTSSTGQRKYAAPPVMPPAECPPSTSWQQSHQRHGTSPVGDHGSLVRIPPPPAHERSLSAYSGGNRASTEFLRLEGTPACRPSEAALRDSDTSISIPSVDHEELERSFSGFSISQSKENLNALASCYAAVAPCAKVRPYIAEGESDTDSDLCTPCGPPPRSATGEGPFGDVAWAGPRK
# KCNQ2 block baseline = recorded beside KCNQ2 block, whose call it bears; B-score; measured here: initial fluorescence intensity artifact check;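 brightness before thallium and not channel activity; 0 = typical well and far values either way flag optical interference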
# An asterisk follows results filed as active; i = inactive; & = joins results of further samples.
KCNQ2 block baseline	KCNQ2 block	Molecule
-0.42	i	COC(=O)c1ccc(C2C(C#N)=C(N)Oc3cc(O)ccc32)cc1 (stereo not drawn)
-1.4	i	COc1ccc(C(=O)N2CC3(C)C4CCC3(C)C2(C#N)C4)cc1OC (stereo not drawn)
0.1	i	Cc1cc(C(=O)N/N=C/c2cc(Br)cc(Br)c2OC(=O)c2cccc(F)c2)n[nH]1
0.06	i	CCOC(=O)c1ccc(NC(=S)NCCC2=CCCCC2)cc1
-2.1	i	O=[N+]([O-])c1cccnc1N1CCN(c2ccc(F)cc2)CC1
8.3	i	C=CCOc1cccc(C2C(C(=O)c3ccc(C)o3)=C(O)C(=O)N2c2nnc(C)s2)c1 (stereo not drawn)
-0.54	i	O=[N+]([O-])c1ccc(-c2n(-c3ccccn3)c3ccccc3[n+]2-c2ccccn2)cc1
-2.2	i	COc1ccc(S(=O)(=O)N2CCOC23CCN(S(=O)(=O)c2cc(F)ccc2F)CC3)cc1
2	i	N#CC(C(=O)NCc1ccccc1)c1nc2ccccc2nc1N1CCCC1 (stereo not drawn)
0.99	i	O=[N+]([O-])c1ccccc1NCc1ccccc1Cl
0.03	i	COc1cc(SC)ccc1C(=O)NCCOc1ccccc1Cl
-0.18	i	OC(c1nc2ccccc2[nH]1)C(O)c1nc2ccccc2[nH]1 (stereo not drawn)
-0.6*	-7.7*	CC1(c2ccccc2)CC(C)(C)N2C(=O)Cc3cccc1c32 (stereo not drawn)
-0.31	i	CCOc1ccc(CCNC(=O)C2CCN(c3nn4c(=O)cc(C)nc4s3)CC2)cc1OCC
0.97	i	COc1ccc(CCNC(=O)CCn2c(SCC(=O)N3CCCC3)nc3ccccc3c2=O)cc1OC
-0.01	i	Cc1cc(=O)[nH]c(SCC(=O)N2c3ccccc3CC2C)n1 (stereo not drawn)
0.51	i	CC(C)Cn1cnc2c1c(=O)n(CC(=O)NN)c(=O)n2Cc1ccccc1
-1.5	i	CC(C)c1nc(C(=O)N2CCCC(CCC(=O)N(C)CCc3ccccn3)C2)cs1 (stereo not drawn)
-0.05	i	CCCCNC(=S)NNC(=O)c1csc(CC)c1
0.6	i	CC(=O)C1=C(O)C(=O)N(CCCn2ccnc2)C1c1ccc(C)cc1 (stereo not drawn)
-1.1	i	c1c2c(cc3sc(N4CCOCC4)nc13)OCCO2
-0.19	i	Cc1ccc(Nc2cc(C)nc3ccccc23)c(C)c1
0.07	i	C=CCNCc1cccn1-c1ccccc1
0.68	i	CCOc1ccc(NC(=O)CN2CC(c3ccccc3)CC2=O)cc1 (stereo not drawn)
0.53	i	COc1cc(NC(=S)NC(=O)c2ccccc2C)ccc1NC(=O)c1cccs1
-0.17	i	Cc1ccc(S(=O)(=O)N(C)CCCC(=O)Nc2ccccn2)cc1
0.88	i	CCOC(=O)c1ccc(NC(=S)N(Cc2cccnc2)Cc2ccco2)cc1
0.81	i	CC12CCC(=O)N1C(C(=O)NNC(=O)c1cccc(Cl)c1)CS2 (stereo not drawn)
0.69*	-5.7*	O=C(NCC1CCCN(Cc2ccc3nonc3c2)C1)c1cccc(C(F)(F)F)c1 (stereo not drawn)
-2	i	CCC1CCCCN1C(=O)c1cccc(S(=O)(=O)Nc2cc(C(F)(F)F)ccc2Cl)c1 (stereo not drawn)
-0.13	i	O=C(COC(=O)CNC(=O)c1ccc(Cl)cc1Cl)Nc1cccc(S(=O)(=O)N2CCCC2)c1
1.9	i	COc1ccccc1CC(=O)N1CCN(c2ccccc2)CC1
-0.04&-0.04	i	C[C@]12CC[C@@H]3c4ccc(OS(=O)(=O)O)cc4CC[C@H]3[C@@H]1CCC2=O
-1	i	CCN(C1CCCCC1)S(=O)(=O)CCNC(=O)c1ccc2c(c1)OCO2
0.91	i	COc1ccc2nc(NC(=O)Cc3cccs3)sc2c1
-0.28	i	O=C1CCCC(O)=C1N=Nc1ccc2c(c1)OCO2
-1.8	i	CN1N=C(C(=O)N2CCCC(N3CCN(c4ccc(F)cc4)CC3)C2)CCC1=O (stereo not drawn)
0.08	i	O=C(CN1C(=O)c2ccccc2C1=O)Nc1ccccc1C(F)(F)F
4.2	i	O=C(c1ccco1)N1CCCN(Cc2nc(Cc3ccccc3)no2)CC1
-1.6	i	COc1ccc(-n2c(=O)c(CCC(=O)N3CCN(c4ccccc4O)CC3)nc3ccccc32)cc1
-0.88	i	CCCC(=O)Nc1ccc(S(=O)(=O)Nc2nccs2)cc1
0.5	i	CCOc1ccc(CCNC(=O)c2ccc(NC3=NC4CS(=O)(=O)CC4S3)cc2)cc1 (stereo not drawn)
0.9	i	CCOc1ccc(C2N(c3cc(Cl)ccc3OC)C(=O)C3CCCN32)cc1OC (stereo not drawn)
-2	i	CCc1ccccc1NC1=NCC(=O)N1Cc1ccc(OC)cc1
0.74	i	CC1(C)CSC(=S)N1S(=O)(=O)c1ccccc1
-0.72	i	COc1ccccc1/C=C/C=N/NC(=O)c1cc(-c2ccc(C)o2)[nH]n1
0.04	i	CCOC(=O)/C(C#N)=C/c1c(Oc2cc(C)cc(C)c2)nc2ccccn2c1=O
1.2	i	C=C(C)CCC(C)N1CCC(n2nccc2NC(=O)CCOc2ccccc2)CC1 (stereo not drawn)
-0.08	i	Cc1ccnc(N2CCC(C(=O)NNC(=O)c3ccncc3)CC2)n1
1.3	i	CCNS(=O)(=O)c1ccc2nc(NC(=O)c3cccnc3)sc2c1
1.4	i	Cc1ccc(N2CC(C(=O)Nc3ccc(N4CCOCC4)cc3)CC2=O)cc1C (stereo not drawn)
-0.38	i	C=C1C[C@H]2[C@@H]3C=C(C)C4=CC(=O)CC[C@]4(C)[C@H]3CC[C@]2(C)[C@@]1(OC(C)=O)C(C)=O
0.84	i	CC(C)CNC(=O)C(=O)Nc1cc2c3c(c1)CCC(=O)N3CCC2
-2.4	i	CN(C1CCCCC1)S(=O)(=O)c1ccc(C(=O)O)cc1
2.5	i	COCC(=O)Nc1nc2n(n1)C(c1ccc(Cl)cc1)CC(c1ccc(OC)cc1)N2 (stereo not drawn)
0.02	i	CC(C)COc1ccc(C(=O)N(CC(=O)Nc2ccccc2C(F)(F)F)Cc2ccco2)cc1
-0.13	i	Cc1[nH]c2ccc(Br)cc2c(=O)c1CN1CCCCCC1
0.43	i	CC(C)(C)c1ccc(C(CC(=O)O)NC(=O)c2ccccc2F)cc1 (stereo not drawn)
1.4	i	Cc1ccc2oc(=O)c3cnn(CC(=O)NC4CCC(C)CC4)c3c2c1 (stereo not drawn)
-0.11	i	COCCNC(=S)NNC(=O)c1ccc(-n2cnnn2)cc1

# Continued.
KCNQ2 block baseline	KCNQ2 block	Molecule
-1.4	i	COC(=O)[C@H](CC(C)C)NC(=O)NCc1ccc(Cl)cc1
1.2	i	CCOc1ccc(NC(=O)Cn2nnc(C(=O)NCc3cccs3)c2N)cc1
0.76	i	Nc1c(C(=O)O)cnc2nc(N3CCOCC3)nn12
0.06	i	N#CCCN(CC(=O)O)S(=O)(=O)c1ccccc1
0.11*	-11*	COc1cccc(N2CCN(c3ncnc4c3[nH]c3ccccc34)CC2C)c1 (stereo not drawn)
-0.97	i	Nc1c(NCCc2ccccc2)c2ccccc2oc1=O
1.8	i	O=S(=O)(Nc1ccc2[nH]ncc2c1)c1ccccc1Cl
-3	i	O=C(NCC1CCCO1)c1cc(-c2ccc(F)cc2)no1 (stereo not drawn)
0.96	i	O=C(Nc1ccc(Nc2ccccc2)cc1)N1CCOCC1
-1.1	i	Cc1cccc(NC(=O)c2cccc3c2-c2ccccc2C3=O)n1
-0.6	i	Cc1ccc(CNC(=O)CNS(=O)(=O)c2cccc3nsnc23)cc1
-0.65	i	CNC(=O)c1ccsc1NC(=O)c1ccc(S(=O)(=O)N2CCCc3ccccc32)cc1

# 4 records picked at random from the list so far:
KCNQ2 block baseline	KCNQ2 block	Molecule
-0.6	i	Cc1ccc(CNC(=O)CNS(=O)(=O)c2cccc3nsnc23)cc1
-1.1	i	Cc1cccc(NC(=O)c2cccc3c2-c2ccccc2C3=O)n1
-1.4	i	COC(=O)[C@H](CC(C)C)NC(=O)NCc1ccc(Cl)cc1
-0.65	i	CNC(=O)c1ccsc1NC(=O)c1ccc(S(=O)(=O)N2CCCc3ccccc32)cc1

# Single values from the entries so far:
# In KCNQ2 block baseline, O=C(NCC1CCCO1)c1cc(-c2ccc(F)cc2)no1 (stereo not drawn) shows -3
# In KCNQ2 block baseline, N#CCCN(CC(=O)O)S(=O)(=O)c1ccccc1 shows 0.06
# In KCNQ2 block baseline, CCOc1ccc(NC(=O)Cn2nnc(C(=O)NCc3cccs3)c2N)cc1 shows 1.2
# In KCNQ2 block baseline, COC(=O)[C@H](CC(C)C)NC(=O)NCc1ccc(Cl)cc1 shows -1.4

# Shown with values under each structure: 7 of the compounds above
# Values run as follows: KCNQ2 block baseline	KCNQ2 block
COc1cccc(N2CCN(c3ncnc4c3[nH]c3ccccc34)CC2C)c1 (stereo not drawn)
    0.11*	-11*
Nc1c(NCCc2ccccc2)c2ccccc2oc1=O
    -0.97	i
O=S(=O)(Nc1ccc2[nH]ncc2c1)c1ccccc1Cl
    1.8	i
O=C(NCC1CCCO1)c1cc(-c2ccc(F)cc2)no1 (stereo not drawn)
    -3	i
O=C(Nc1ccc(Nc2ccccc2)cc1)N1CCOCC1
    0.96	i
Cc1cccc(NC(=O)c2cccc3c2-c2ccccc2C3=O)n1
    -1.1	i
Cc1ccc(CNC(=O)CNS(=O)(=O)c2cccc3nsnc23)cc1
    -0.6	i

# (next part)
KCNQ2 block baseline	KCNQ2 block	Molecule
0.47	i	NC(=O)N/N=C/c1cn(-c2ccccc2)nc1-c1cccnc1
1.1	i	Cc1c(C)c2ccc(O)c(CN3CCCC3)c2oc1=O
-0.67	i	CS(=O)(=O)Nc1ccccc1NS(C)(=O)=O
0.25	i	CCCCOc1ccc(C(=O)NC(=S)Nc2ccc(CN3CCOCC3)cc2)cc1
-0.53	i	COc1ccccc1N1CCN(C(=O)CCc2ccccc2)CC1
0.29	i	CCN(CC)CCNC(=O)C12CC3CC(CC(C3)C1)C2
0.04	i	COc1ccc(/C(O)=C2/C(=O)C(=O)N(CCN3CCOCC3)C2c2ccccn2)cc1OC (stereo not drawn)
-0.18	i	Cc1cc(C)cc(N(CC(=O)Nc2ccc(-c3nc4ccc(C)cc4s3)cc2)S(C)(=O)=O)c1
-0.22	i	CCC(C)Sc1cc(C(F)(F)F)c(C(=O)Nc2ccc(Cl)cc2)cn1 (stereo not drawn)
0.95	i	CCCN1CCC(=NNc2ccc(S(=O)(=O)N(CC)CC)cc2[N+](=O)[O-])CC1
1.2	i	N/C(Cc1ccc(Cl)cc1)=N\OC(=O)Cc1ccc([N+](=O)[O-])cc1
-1.2	i	Cc1cc(C)n2nc(C(=O)N/N=C/c3cn(C)nc3C)nc2n1
-2.4	i	C=CCn1c2c(c(=O)[nH]c1=S)CN(C(C)c1ccccc1)CN2 (stereo not drawn)
1.8	i	Cc1cc(-c2ccc(C)c(S(=O)(=O)N3CC(=O)Nc4ccccc43)c2)on1
0.24	i	COc1ccc(CN2CCC(Oc3ccc(C(=O)N4CCCC4)cc3)CC2)c(F)c1
0.85	i	O=C(COC(=O)c1ccc(Cl)s1)c1ccc[nH]1
-0.46	i	CCn1c(SCC(=O)Nc2ccccc2F)nnc1-c1cnccn1
-0.01	i	Cc1ccccc1-n1c(SCC(=O)N2CCOCC2)nc(O)c(Cc2ccccc2)c1=O
-2.6	i	CC(C)(O)C#Cc1ccc(C(=O)NCc2ccccc2F)cc1
-3.5	i	COc1ccccc1CNC(=O)C1CC(c2c(Cl)cccc2Cl)=NO1 (stereo not drawn)
-0.76	i	CC(C)c1ccc(NC2CCCN(C(=O)CCN3CCOCC3)C2)cc1 (stereo not drawn)
0.16	i	COc1ccc(C(C)=O)cc1COC(=O)CNC(=O)c1cc(C)cc(C)c1
-0.2	i	O=C(N/N=C/c1cc2c(cc1Cl)OCO2)c1cc(-c2ccccc2)n[nH]1
-0.49	i	Cn1c(Oc2ccc(Cl)cc2)c(C=O)c2ccccc21
0.68	i	Cc1c(C(=O)Nc2cccnc2Cl)oc2ccccc12
1.3	i	CC(=O)Oc1ccccc1/C=C1\CCOC1=O
-0.08	i	CC(C)Nc1nc(Oc2ccc(=O)n(-c3ccccc3)n2)nc(N(C)C)n1
0.18	i	COc1cc(C(=O)NC(c2ccccc2)c2ccccc2)cc(OC)c1C
0.46	i	Cc1c(NC(=O)CN2C(=O)C(=O)N(Cc3ccccc3)C2=O)c(=O)n(-c2ccccc2)n1C
-0.56	i	CN(C)S(=O)(=O)N(CC(=O)N1CCN(c2ccccc2F)CC1)c1ccccc1
1	i	Cc1ccc(C)c(-c2nnc(NC(=O)CS(=O)(=O)c3ccccc3)o2)c1
-0.91	i	O=C(NCC1CCCO1)C1CCN(C2CCN(C(=O)Cc3ccsc3)CC2)CC1 (stereo not drawn)
-0.28	i	Oc1cccc2ccc(N3CCOCC3)nc12
0.49*	-6.6*	CC1=CC(C)(C)n2c(O)c(N=N)c3c(C)c(C)cc1c32
0.89	i	C=CCc1cccc(CNc2c(C)n(C)n(-c3ccccc3)c2=O)c1O
-1.9	i	Cc1ccccc1Nc1nnc(SCc2cc(=O)n3ccsc3n2)s1
1.1	i	COc1ccc(C(=O)CSc2n[nH]c(N)n2)cc1
0.88	i	CCNS(=O)(=O)c1ccc(C(=O)OCc2cc(=O)oc3cc(OC)ccc23)cc1
0.54	i	CCCCc1ccc(NC(=S)NCc2cccs2)cc1
0.46	i	CCOc1ccc(C(=O)/C=C/c2cc(OC)c(OC)c(OC)c2)cc1
1.3	i	CC(=O)Nc1ccc(NC(=O)C(C)OC(=O)CNS(=O)(=O)c2ccc(Br)cc2Cl)cc1 (stereo not drawn)
-0.17	i	Cc1ccc(N(CC(=O)Nc2ccc(C)cc2C)S(=O)(=O)N2CCCC2)cc1
0.7	i	COc1cccc(C(=O)COC(=O)c2cccs2)c1
-3.8	i	Cc1ccc(CNC(=O)CCNC(=O)c2ccco2)cc1
1	i	NC(=O)c1ccccc1
0.16	i	COc1ccccc1Cn1c(-c2ccco2)nc2nc3ccccc3nc21
-0.59	i	Cc1onc(-c2ccccc2)c1C(=O)NCc1ccc(F)cc1
1.2	i	O=C(CCc1ccccc1)NCc1cccnc1
0.72	i	O=C(Nc1ccccc1-c1ccccc1)c1ccco1
-0.79	i	COc1ccc(S(=O)(=O)C(C#N)c2nc3ccccc3nc2N2CCCC(C)C2)cc1 (stereo not drawn)

# These rows are one share of the data (hit frequency here may not be typical).
